# Screens (PubChem BioAssay)
# Vaccinia mCherry – qHTS for Stage-Specific Inhibitors of Vaccinia Orthopoxvirus: mCherry Reporter Primary qHTS; AID 720579, 2013; Potency, µM (series often up to 36.5 µM), for the others: at the highest dose activity change, negative = inhibition, actives largely listed as inhibitors; Vaccinia virus mCherry reporter infection, fluorescence; about a quarter of the inactives have no number; 310,000 tested, 0.63% active; active = well fitted inhibition curve with a large enough effect; inconclusive = small, poorly fitted or top-dose-only effect; inactive = no such curve, though single readings can be large or run the other way; tested in A549 cells; note: nearly all actives have a fitted effect of over 35% in size; inactives centre near -10
# VACV Venus inh – qHTS for Stage-Specific Inhibitors of Vaccinia Orthopoxvirus: Venus Reporter Primary qHTS | Vaccinia virus Venus reporter expression, fluorescence | Potency, µM (top dose mostly 36.5 µM), inactives show at the top dose activity change, negative = inhibition, most hits filed as inhibitors | 330,000 tested, 0.46% active; active means well fitted inhibition curve with a large enough effect; inconclusive means small, poorly fitted or top-dose-only effect; inactive means no such curve, though single readings can be large or run the other way; tested in A549 cells; note: nearly all actives have a fitted effect of over 30% in size; inactives centre near -10
# * hit, by the source's call; i = inactive; ? = inconclusive; · = not tested or not shown; & = joins results of further samples; [ ] = another dose, or the depositor's remark. % is set by controls: 0 for no effect and ±100 for the full control effect; potency is the fitted concentration of half-maximal effect.
# Start of the listing, in advance, 19 compounds:
SMILES,Vaccinia mCherry,VACV Venus inh
Cc1cc(Br)ccc1NC(=O)CN(C)C(=O)Cn1c(=O)cnc2ccccc21,-10%,-7%
CC1=C(C(=O)Nc2cccc(C(F)(F)F)c2)C(c2ccccc2)n2ncnc2N1 (stereo unspecified),-8%,-6%
Nc1nc(N2CCCCC2)nc2ccccc12,·,-9%
CC(C)CN1CC(C)C(=O)N(c2ccccc2)C1=O (stereo unspecified),-10%,-5%
Cc1ccc(SCC(=O)N2CCOCC2)cc1,-12%,0%
O=c1c(N2CCN(c3ccccc3)CC2)csc2ccc(Cl)cc12,?,?
Cc1ccc(C)c(C(=O)COC(=O)c2cccc(N3C(=O)c4c(C)nc5ccccc5c4C3=O)c2)c1,-6%,-6%
CN(c1ccccc1)S(=O)(=O)c1cccc(C(=O)NNC(=O)c2ccccc2)c1,-8%,-18%
O=C(/C=C/c1ccc([N+](=O)[O-])cc1)c1cccs1,i,3%
O=C(Nc1ccccc1Cl)NC1(C(=O)NCCCN2CCOCC2)CCCCC1,-4%,-13%
Cc1ccc(-c2nc(CS(=O)(=O)CC(=O)NCCN3CCCC3)c(C)o2)cc1,?,?
CCOC(=O)C1CCCN(C(=S)NC2CCCC2)C1 (stereo unspecified),i,-8%
O=C(CSC1=NS(=O)(=O)c2cc(F)ccc2N1)Nc1ccccc1F,i,-21%
CCC(CC)C(=O)Nc1nnc(SCC(=O)NC2CCCCC2)s1,-16%,-11%
CC(C)(C)c1ccc(C(=O)O[C@H]2[C@H](Cc3ccccc3)NS(=O)(=O)[C@H]3C[C@@H]4C=C[C@]23O4)cc1,i,-27%
Cc1cc(NC(=O)CSc2nncc(=O)n2N)no1,i,3%
C/C(CC(=O)NC(C)C)=N\NC(=O)COc1cc(C)c(Br)cc1Br,-18%,-12%
CC[N+](CC)(CC#Cc1ccccc1)CC(=O)c1ccc(Cl)cc1,-13%,-11%
CC1=C(C(=O)Nc2ccc(C)cc2C)C(C(C)C)n2nc(SCc3ccccc3Cl)nc2N1 (stereo unspecified),-15%,-3%

# Main list, from the first entry:
SMILES,Vaccinia mCherry,VACV Venus inh
Cc1cc(Br)ccc1NC(=O)CN(C)C(=O)Cn1c(=O)cnc2ccccc21,-10%,-7%
CC1=C(C(=O)Nc2cccc(C(F)(F)F)c2)C(c2ccccc2)n2ncnc2N1 (stereo unspecified),-8%,-6%
Nc1nc(N2CCCCC2)nc2ccccc12,·,-9%
CC(C)CN1CC(C)C(=O)N(c2ccccc2)C1=O (stereo unspecified),-10%,-5%
Cc1ccc(SCC(=O)N2CCOCC2)cc1,-12%,0%
O=c1c(N2CCN(c3ccccc3)CC2)csc2ccc(Cl)cc12,?,?
Cc1ccc(C)c(C(=O)COC(=O)c2cccc(N3C(=O)c4c(C)nc5ccccc5c4C3=O)c2)c1,-6%,-6%
CN(c1ccccc1)S(=O)(=O)c1cccc(C(=O)NNC(=O)c2ccccc2)c1,-8%,-18%
O=C(/C=C/c1ccc([N+](=O)[O-])cc1)c1cccs1,i,3%
O=C(Nc1ccccc1Cl)NC1(C(=O)NCCCN2CCOCC2)CCCCC1,-4%,-13%
Cc1ccc(-c2nc(CS(=O)(=O)CC(=O)NCCN3CCCC3)c(C)o2)cc1,?,?
CCOC(=O)C1CCCN(C(=S)NC2CCCC2)C1 (stereo unspecified),i,-8%
O=C(CSC1=NS(=O)(=O)c2cc(F)ccc2N1)Nc1ccccc1F,i,-21%
CCC(CC)C(=O)Nc1nnc(SCC(=O)NC2CCCCC2)s1,-16%,-11%
CC(C)(C)c1ccc(C(=O)O[C@H]2[C@H](Cc3ccccc3)NS(=O)(=O)[C@H]3C[C@@H]4C=C[C@]23O4)cc1,i,-27%
Cc1cc(NC(=O)CSc2nncc(=O)n2N)no1,i,3%
C/C(CC(=O)NC(C)C)=N\NC(=O)COc1cc(C)c(Br)cc1Br,-18%,-12%
CC[N+](CC)(CC#Cc1ccccc1)CC(=O)c1ccc(Cl)cc1,-13%,-11%
CC1=C(C(=O)Nc2ccc(C)cc2C)C(C(C)C)n2nc(SCc3ccccc3Cl)nc2N1 (stereo unspecified),-15%,-3%
Cc1ccc(OCC(=O)O/N=C(\N)c2ccccn2)cc1C,1%,-4%
Cc1cc(F)ccc1NC(=O)c1c(C)oc2c1C1=NCCN1C=N2,-6%,-14%
O=C(Nc1ccccc1)c1cc(C2COCCN2C(=O)c2cccs2)on1 (stereo unspecified),-9%,-7%
CCOC(=O)C1CCCN(C(=O)c2ccc(OC)cc2OC)CC1 (stereo unspecified),10%,-2%
CN(Cc1ccc(Cl)c(Cl)c1)C(=O)C1CC(=O)N(c2ccc3c(c2)OCCO3)C1 (stereo unspecified),1%,-21%
CCOC(=O)Sc1nc2ncncc2[nH]1,-17%,0%
CC(=O)c1ccc(OCc2cc(C(=O)N(C)Cc3ccccn3)no2)cc1,i,-10%
CC(C)[C@H]1COCCS(=O)(=O)N1Cc1cccc(Cl)c1,-15%,-24%&-9%
Cc1c(C(=O)c2cccc(F)c2)c2ccccn2c1CCC#N,-9%,-3%
Cc1cccc(OCC(=O)Nc2ccccc2C(=O)OCc2cc(=O)n3nc(C4CC4)sc3n2)c1,-2%,-11%
CNc1ncnc2c1ncn2[C@H]1CN(Cc2cccs2)C[C@@H](CO)O1,53%[activator],-2%
CCOc1ccc(-n2c(SCC(=O)N3CCc4ccccc43)nc3c([nH]c4ccccc43)c2=O)cc1,-1%,0%
CCN(CC)c1ccc(/C=N/NC(=S)NCc2ccco2)cc1,?,-22%
O=C(NCc1ccccn1)c1nnc(Cc2ccc(Cl)cc2)o1,i,-5%
COC(=O)c1ccc(COc2cccnc2[N+](=O)[O-])cc1,-8%,-14%
CCO[C@H]1OC(C(=O)NC2CC2)=C[C@@H](C2CCCCC2)[C@@H]1CCCO,i,-22%
COc1ccccc1NC(=O)N1CCCC1,i,-16%
Cc1cccc(OCCNC(=S)NC(=O)c2cccnc2)c1,-5%,-28%
N#Cc1nc(-c2cccs2)oc1NCc1ccccc1,·,-12%
Cc1cccc2cc(CN(CC3CCCO3)C(=S)NCc3ccco3)c(=O)[nH]c12 (stereo unspecified),0%,-11%
Cc1ccc(OC(=O)CCNC(=O)c2ccccc2Cl)c(Br)c1,-18%,-9%
Cc1cc(=O)[nH]c(N)n1,-9%[7.34 µM],-1%[7.34 µM]
CCc1c(CN2CCN(c3ccccc3F)CC2)csc1C,-5%,-4%
O=C(CNC(=O)c1ccc2ccccc2c1)OCC(=O)N1CCN(S(=O)(=O)c2ccc3ccccc3c2)CC1,-1%,-7%
CS(=O)(=O)N1CCN(C2Cc3ccccc3C2)CC1,-21%,-3%
COc1ccc(CN(C)C(=O)CNC(=O)c2ccc(C)cc2)cc1,-3%,-5%
COCc1nc2ccccc2n1Cc1c(F)cccc1Cl,-11%,-2%
CC(C)COC(=O)C(C#N)c1nc2ccccc2nc1N1CCN(Cc2ccc3c(c2)OCO3)CC1 (stereo unspecified),-1%,3%
COc1ccc(C(=O)NCC(=O)OCc2ccc(Br)cc2)cc1,i,0%
COc1ccc([C@@H]2CC=C(C(=O)O)CN2S(=O)(=O)c2ccc(Cl)cc2)cc1,i,-10%
Cc1cc(OC(=O)c2ccccc2)n(CCC#N)n1,-2%,-6%
COC(=O)c1cc2oc3ccccc3c2n1CC(=O)Nc1cc(OC)cc(OC)c1,-13%,-7%
CCCN(CCC)c1ccc(/C=C/c2sc3ccccc3[n+]2CCCCI)cc1,i,·
CCOC(=O)c1ccc(NC(=O)c2cccn(Cc3ccc(C)cc3)c2=O)cc1,?,-24%
COC(=O)c1cccc(C(=O)N2CCCC(Nc3ccc4c(c3)OCCO4)C2)c1 (stereo unspecified),?,-15%
O=C(CN(Cc1ccc(F)cc1)C(=O)CNS(=O)(=O)c1ccccc1)NCC1CCCO1 (stereo unspecified),-7%,-5%
CCCn1c(=N)c(C(=O)NCc2cccnc2)cc2c(=O)n3cc(C)ccc3nc21,-7%,-5%
O=C1ON=C(c2ccccc2)/C1=C/c1ccc(OS(=O)(=O)c2ccccc2)cc1,-14%,-5%
Cc1cc[n+](C)c2ccccc12,10%,13%
CCOc1ccccc1C(=O)Nc1cc(=O)n(C)c(=O)n1C,-24%,-6%
COc1ccc(S(=O)(=O)NCCSC(C)(C)C)cc1Cl,i,-16%
# (further entries)
SMILES,Vaccinia mCherry,VACV Venus inh
COc1cc(S(=O)(=O)N2CCN(Cc3ccccc3)CC2)ccc1Br,·,4%
Clc1ccc(Cn2cc3c(n2)-c2cc4ccccc4n2C3)cc1,23%,-8%
Cc1cc(C)nc(NC(=O)CSc2nc3ccccc3o2)n1,i,-6%
COc1ccc(S(=O)(=O)n2nc(OC(=O)c3ccccc3Br)cc2N)cc1,-10%,?
CC(C)C1(C)N=C(c2ncccc2C(=O)O)NC1=O (stereo unspecified),-11%,-12%
COc1ccc(CNC(=O)c2cc(C3CC3)on2)cc1,-9%,-8%
COCCNC(=O)Cn1nc(N2CCN(c3ccccc3OC)CC2)ccc1=O,-10%,1%
Cc1ccc(NC(=O)C2CCCN(c3nccc(C)n3)C2)c(C)c1 (stereo unspecified),-18%,-11%
Cc1ccc(NC(=O)Cn2nc(-c3ccccc3)nc(Cc3ccc(Cl)cc3)c2=O)cc1,-12%,-1%
O=C(Nc1ccc(C(F)(F)F)cc1)C1CCCCN1S(=O)(=O)c1ccccc1 (stereo unspecified),-2%,-14%
Cc1ccc(Nc2ccc(S(=O)(=O)N3CCOCC3)cc2[N+](=O)[O-])c(C)c1,-7%,-17%
COc1ccc2c(c1)/C(=C/c1cnc[nH]1)C(=O)N2,3.5µM*,7.1µM*
CN(C(=O)c1ccncc1)c1nnc(-c2ccncc2)s1,-20%,-12%
C=C1C(=O)OC2CC1C(OC(C)=O)CC(C)=CCCC(C)=CCC[C@@]2(C)O (stereo partly specified),?,?
COC(=O)CN1C(=O)Nc2ccc(Br)cc2C1c1ccccc1 (stereo unspecified),?,-24%
CSc1ncccc1C(=O)N1CCCC(N2CCN(c3ccccc3C)CC2)C1 (stereo unspecified),-9%,-12%
CCOc1ccc(S(=O)(=O)N2CCC(C(=O)NCc3ccccn3)CC2)cc1Cl,i,-15%
COc1ccccc1Nc1nnc(SCC(=O)c2cc(C)n(CC3CCCO3)c2C)s1 (stereo unspecified),·,-15%
O=C(OCC(=O)N1CCCC1=O)C1COc2ccccc2O1 (stereo unspecified),-8%,8%
CC(=O)OC(C(=O)NC1CCCCC1)c1ccncc1 (stereo unspecified),8%,19%
COCCNc1nnc(Cc2ccccc2)c(=O)[nH]1,-1%,-2%
Cc1cccn2c(=O)c(/C=C(\C#N)c3nc4ccccc4s3)c(Oc3ccc(Br)cc3)nc12,-9%,-14%
Cc1cc2ccccn2c1C(=O)c1ccc(NN)c([N+](=O)[O-])c1,0.89µM*,?
Cn1ccc(C(=O)Nc2cccnc2Cl)n1,i,-7%
Cc1noc(C)c1S(=O)(=O)N(Cc1ccccc1)C(C)C,-14%,-13%
[O-][N+](=Cc1ccccc1)c1ccc(Cl)cc1,-21%,-7%
COc1ccc(C)cc1-n1nnnc1SCc1cc(=O)n2cc(C)ccc2n1,-17%,-20%
COc1c2ccoc2c(OC[C@@H](O)C(C)(C)OC)c2oc(=O)ccc12,i,-9%
Cc1cc(C)cc(Cn2cc(CN3CC(N4CCCCC4)CS3(=O)=O)nn2)c1 (stereo unspecified),35%[activator],11%
COc1cccc(C(=O)C2CCCN(Cc3ccc(OC)c(Cn4cncn4)c3)C2)c1 (stereo unspecified),?,-18%
COc1ccc(NC(=O)CN2CCN(S(=O)(=O)N3CCCCCC3)CC2)cc1,-15%,-3%
Cc1cc(C)cc(CN2CCC(Oc3ccc(C(=O)N4CCCC4)cc3)CC2)c1,-21%,-25%
C#CCN1C(C)=CC(=O)[C@@H](O)[C@H]1c1ccccc1Br,-16%,2%
Cc1cccc(/C=N/NC(=O)c2ccc(NC(=O)c3ccc(Cl)cc3)cc2)n1,?,?
CCOc1cc(C)c(C(C)C)cc1S(=O)(=O)N1CC(C)OC(C)C1 (stereo unspecified),·,-37%
CCc1ccc(OC2=NS(=O)(=O)c3ccccc32)cc1,?,?
Cc1cccc(C)c1NC(=O)Cn1cc(C(=O)c2ccco2)c2ccccc21,0%,-4%
Cc1cc(N(C)C)nc(SC(C)C)n1,·,-8%
Cc1ccc(S(=O)(=O)c2cn(Cc3ccccc3)c3cc(N4CCCC4)c(F)cc3c2=O)cc1,0%,-8%
CCc1ccc(-n2nc3ccc(NC(=O)COc4ccc(OC)cc4)cc3n2)cc1,-19%[7.34 µM],-9%[7.34 µM]
CCc1cc(-c2n[nH]c(=S)n2CC(C)C)cs1,-1%,-20%
Cc1c(-n2c(SCC(=O)O)nnc2-c2ccccc2Br)c(=O)n(-c2ccccc2)n1C,i,-3%
COc1ccc(N2CCN(C(c3cc(OC)ccc3OC)c3nnnn3CC3CCCO3)CC2)cc1 (stereo unspecified),-8%,-2%
Cc1nc(SCc2ccccc2Cl)c(C#N)c(C)c1C,4%,-2%
Cn1cnc2c(=O)sc3ccccc3c21,-2%,4%
O=C(NCC1CC1)C1Cc2c(-c3ccc(Cl)cc3)ccnc2O1 (stereo unspecified),8%,-23%
O=C1COc2ccc(C(=O)COC(=O)Cc3ccccc3)cc2N1,-10%,4%
COc1cc(CNCc2ccccn2)ccc1OCC(=O)NC1CCCCC1,-22%,-13%
CC#CC[N+](C)(CC#CC)CC(=O)c1ccccc1,i,-3%
CCCCn1c(SCc2ccc(Cl)cc2)nc2c1c(=O)[nH]c(=O)n2C,·,-9%
